2A StopGo = FMDV 2A StopGo reporter, luciferase signal | AID 1159524 | Potency, µM (doses to about 57.9 µM), for inactives: at the highest dose signal change, negative = less light | 410,000 tested, 1.2% active | human cells with a luciferase reporter of 2A StopGo recoding; control for the full effect not named in the record; active = well fitted falling curve with a large enough effect; inconclusive = small, poorly fitted or top-dose-only effect; inactive = no such curve, though single readings can be large or run the other way; tested in HEK293T cells; further: on the % scale 0 is the no-effect control and ±100 the full control effect; nearly all actives have a fitted effect of over 45% in size; luciferase light after 4 h
Marburg entry inh = Marburg virus entry inhibition; AID 540276; 300,000 tested, 1.8% active; Potency, µM (titrated, usually from 37.8 µM), inactives show at the highest dose activity change, negative = inhibition, actives largely listed as inhibitors; Marburg virus pseudotyped entry inhibition, cell reporter; control for the full effect not named in the record; about a third of the inactives were read at about 46 µM; active = well fitted inhibition curve with a large enough effect; inconclusive = small, poorly fitted or top-dose-only effect, or effect the other way; inactive = flat fitted curve, though single readings scatter; tested in HEK293 cells; about a fifth of its hits are not listed in these tables; further: on the % scale 0 is the no-effect control and ±100 the full control effect; luciferase read-out
Cruzain noTriton = blocks cruzain activity in detergent-free assay; P25779; 200,000 tested, 2.3% active; purified cruzain, Z-FR-AMC fluorescence, no detergent; AID 1476; Potency, µM, without a hit: max response, negative = inhibition, hits mostly inhibitors; active means well fitted curve in the direction sought with a large enough effect; inconclusive means small, poorly fitted or top-dose-only effect, or another doubt; inactive means no such curve, though single readings can be large; an effect the other way counts as inactive or inconclusive;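 further: plate controls were enzyme without inhibitor for no effect and buffer without enzyme for full effect; nearly all actives have a fitted effect of over 40% in size; top concentration of the series not given in the record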
Target sequence (P25779 123-467 limits assumed): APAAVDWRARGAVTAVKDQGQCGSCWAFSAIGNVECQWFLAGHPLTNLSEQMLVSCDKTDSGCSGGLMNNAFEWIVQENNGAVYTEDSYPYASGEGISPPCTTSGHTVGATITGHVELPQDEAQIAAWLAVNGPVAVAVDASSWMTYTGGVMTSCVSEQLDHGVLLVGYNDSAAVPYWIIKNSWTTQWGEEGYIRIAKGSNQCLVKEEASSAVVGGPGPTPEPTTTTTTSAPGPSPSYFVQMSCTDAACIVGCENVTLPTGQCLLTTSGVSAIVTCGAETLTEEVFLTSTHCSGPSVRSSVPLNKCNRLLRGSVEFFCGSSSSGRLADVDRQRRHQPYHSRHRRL
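Detergent-free condition (0.00005% Triton X-100) in acetate buffer pH 5.5 with DTT. 1.5 nM enzyme and compound were pre-mixed 15 min, then 2 uM Z-FR-AMC substrate added; reaction progress from fluorescence change between first and third reads (60 s).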
Cruzain Triton = inhibitors of Trypanosoma cruzi cruzain with detergent; P25779; purified cruzain, Z-FR-AMC fluorescence, 0.01% Triton; Potency, µM, for inactives: max response, negative = inhibition, usual class: inhibitors; 200,000 tested, 0.43% active; active means well fitted curve in the direction sought with a large enough effect; inconclusive means small, poorly fitted or top-dose-only effect, or another doubt; inactive means no such curve, though single readings can be large; an effect the other way counts as inactive or inconclusive;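 further: plate controls were neutral wells for no effect and buffer without enzyme for full effect; nearly all actives have a fitted effect of over 40% in size; top concentration of the series not given in the record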
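Detergent-containing arm of a paired screen for aggregation-based inhibition: 0.01% Triton X-100 present. Cruzain at 1.5 nM cleaved 2 uM Z-FR-AMC at pH 5.5 with 5 mM DTT; AMC fluorescence gain over 60 s measured activity.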
SARS PLpro yeast = inhibitors of SARS-CoV papain-like protease in yeast | S. cerevisiae expressing SARS-CoV PLpro, growth rescue; control for the full effect not named in the record | Potency, µM (titrated, usually from 32.9 µM), inactives show top-dose activity, positive = growth rescue | 330,000 tested, 0.19% active | AID 485353; further: 0% is about no effect; nearly all actives have a fitted effect of over 55% in size; growth read by luminescence after 48 h
NS1 function inh = influenza NS1 inhibition | S. cerevisiae slowed by influenza A NS1, growth recovery by OD600 | Potency, µM (highest dose often 46.1 µM), inactives show at the top dose activity, positive = more growth | 270,000 tested, 0.4% active | AID 2326; further: actives are rising curves; nearly all actives have a fitted effect of over 50% in size
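Growth recovery, yeast-based: influenza A NS1 expressed in S. cerevisiae causes slow growth, and suppressors are detected by OD600. The parent strain without NS1 is used as positive control.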
LASV entry inh = blocks Lassa virus binding to or entry into cells. Lassa virus pseudotype entry inhibition, cell reporter; control for the full effect not named in the record. Potency, µM (titrated, usually from 37.9 µM), for inactives: top-dose activity change, negative = inhibition, usual class: inhibitors. 300,000 tested, 1.2% active. AID 540256; active means well fitted inhibition curve with a large enough effect; inconclusive means small, poorly fitted or top-dose-only effect, or effect the other way; inactive means flat fitted curve, though single readings scatter; tested in HEK293 cells; further: on the % scale 0 is the no-effect control and ±100 the full control effect; nearly all actives have a fitted effect of over 50% in size; luciferase read-out
RE007 growth inh = less growth of the S. pombe RE007 Vpr strain; Potency, µM (highest dose often 92.2 µM), for the others: at the top dose activity change, negative = less growth; 360,000 tested, 0.21% active; S. pombe RE007 Vpr strain, BacTiter-Glo ATP luminescence, 24 h; control for the full effect not named in the record; active = well fitted falling curve with a large enough effect; inconclusive = small, poorly fitted or top-dose-only effect; inactive = no such curve, though single readings can be large or run the other way;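 further: on the % scale 0 is the no-effect control and ±100 the full control effect; nearly all actives have a fitted effect of over 50% in size; the assay follows cell death caused by Vpr and the record does not say whether a fall means rescue or toxicity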
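Fission yeast RE007 carrying one integrated HIV-1 vpr copy, seeded at OD 0.01 in PMG+AL medium with 23 nL pinned compound. Grown 24 h at 30 degrees; viability read by BacTiter-Glo luminescence after 5 min.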
Starred values were filed as active, the others as inactive; ? = inconclusive; . = no result given; & = joins results of further samples; [ ] = dose if it differs, or a comment. Unless noted, the call rests on the fitted dose curve; in most records, active means well fitted rising curve with a large enough effect; inconclusive means small, poorly fitted or top-dose-only effect; inactive means no such curve, though single readings can be large or run the other way. Potency means the concentration at half of the fitted maximal effect.

mol	2A StopGo	Cruzain Triton	RE007 growth inh	Marburg entry inh	Cruzain noTriton	LASV entry inh	NS1 function inh	SARS PLpro yeast
C=CCn1c(SCC(=O)Nc2cc(C)on2)nnc1-c1ccccc1F	-8%	.	-14%	3%[46.1 µM]	.	2%[46.1 µM]	.	2%
Cc1cccc(OCC(=O)NCC(=O)N/N=C/c2ccc([N+](=O)[O-])cc2)c1	-17%	.	10%	9%[46.1 µM]	.	-19%	.	2%
CCc1nnc2c(Nc3ccc(N(CC)CC)cc3C)nc3ccccc3n12	-20%	-1.1%	.	.	0%	-17%[46.1 µM]	.	.
CC(C)N1CCN(c2ccncc2S(=O)(=O)N2CCCCC2)CC1	-5%	-0.1%	-9%	.	2%	.	-8%	.
CCCSCCCNC(=O)C1CCN(C(=O)c2cnn(-c3ccccc3)c2-n2cccc2)CC1	-26%	-3.9%	.	21%[46.1 µM]	?	10%[46.1 µM]	.	.
CCOC(=O)c1c(NC(=O)C2CC2)sc(C)c1CC	-21%	-12%	-10%	-17%	-18%	0%	-44%	3%
CCOC(=O)C1=C(C)NC2=C(C(=O)CC(c3cccs3)C2)C1c1cccs1 (stereo not given)	-26%	-5.9%	0%	?	-5%	?	2%	3%
COc1ccc(Nc2ccc([N+](=O)[O-])c3nonc23)c(OC)c1	4%	.	3%	-8%[46.1 µM]	.	-5%[46.1 µM]	0%	2%
COc1cc(OC)cc(C(=O)Oc2ccc(/C=N/Nc3nc4ccccc4s3)cc2OC)c1	22%	-6.6%	-2%	?	13µM*	?	28%	2%
CCN(CC)c1ccc(NC(=O)CN2CCN(CC(=O)Nc3ccccc3OC)CC2)cc1	?	0.8%	-26%	.	17%	0%[46.1 µM]	-2%	1%
COc1ccc(S(=O)(=O)N2CCC(C(=O)Nc3ccc(Oc4ccccc4)cc3)CC2)cc1	0%	-1.2%	.	-3%[46.1 µM]	2%	13%[46.1 µM]	.	.
CCc1ccc(NC(=O)C2CC(=O)N(C(C)C)C2)cc1 (stereo not given)	21%	0.2%	15%	?	-3%	27%	2%	-3%
C=C(Br)Cn1c(CCCC)nc2ccccc21	-23%	2.0%	-1%	0%	3%	-22%	0%	-7%
Cc1ccc(N=C2N=C(N)c3ccccc32)cc1C	-6%	.	0%	?	.	?	.	.
Cc1ccc(NC(=O)NC2CCN(S(=O)(=O)c3ccc(F)cc3)CC2)cc1	.	-4.1%	-1%	18%	-7%	?	2%	15%
COc1cccc(NC(=O)CN(C)C(=O)c2cc3c(s2)CCC3)c1	36%[activator]	.	28%	5%	.	25%	.	-14%
COP(C)(=O)c1c(C)nn(-c2ccccc2)c1C (stereo not given)	-12%	7.3%	15%	1%	3%	2%	0%	3%
COc1ccc(-c2[nH]ncc2/C=N/NC(=O)c2ccc(Br)cc2)c(OC)c1	-12%	-14%	5%	?	?	9%	12%	14%
CCN(C1CCCCC1)S(=O)(=O)c1cc2c3c(c1)CCN3C(=O)CC2	-9%	.	-23%	-2%[46.1 µM]	.	-9%	.	1%
COc1ccc(CNC(=O)c2cc3ccccn3n2)cc1OC	-17%	0.2%	.	.	-11%	-7%[46.1 µM]	.	.
O=C(NCC1CCCO1)c1cc(-c2ccccc2)nc2ccccc12 (stereo not given)	-7%	.	9%	?	.	-21%[46.1 µM]	-4%	-1%
COc1ccc(OC)c(NC(=O)CN2C(=O)C3(OCCCO3)c3ccccc32)c1	-20%	0.7%	-8%	-1%	-4%	4%	1%	-7%
O=C(c1ccc(CNS(=O)(=O)c2ccc(Br)cc2)cc1)N1CCCCCC1	-20%	.	7%	.	.	.	-6%	-2%
CCC(CC)C(=O)NCCc1cc2ccc(C)c(C)c2[nH]c1=O	.	2.5%	.	3%	-2%	.	-9%	9%
NC(=O)c1c(NC(=O)C2CCCO2)sc2c1CCCC2 (stereo not given)	20%	-17%	1%	?	0%	13%	16%	-13%
O=C(Nc1ccc(S(=O)(=O)Nc2ncccn2)cc1)c1cc(=O)c2ccccc2o1	-9%	-0.8%	.	-3%[46.1 µM]	-3%	?	.	.
CC(=O)Nc1ccccc1C(=O)N1CCN(c2cccc(C)c2C)CC1	-4%	.	23%	.	.	.	3%	1%
CCN(C(=O)CCc1nnc2ccc(N3CCC4(CC3)OCCO4)nn12)c1ccccc1	-7%	.	3%	6%[46.1 µM]	.	-14%[46.1 µM]	-6%	17%
O=C(c1cc(-c2cccc(O)c2)on1)N1CCCCCC1	22%	.	-7%	?	.	?	-13%	-14%
NCCCC[C@@H](C(=O)N1CCNCC1)n1cc(CCC(=O)O)nn1	-13%	.	25%	.	.	.	11%	-1%
COC(=O)c1nc(NC(C)=O)n[nH]1	.	-0.7%	.	-7%	2%	.	-2%	9%
CCOc1ncccc1C(=O)Nc1cc(S(=O)(=O)N2CCCCC2)ccc1OC	-28%	.	-8%	-2%[46.1 µM]	.	-17%	.	3%
CCOc1ccc(-c2nnn(CC(=O)NCc3ccco3)n2)cc1OCC	-12%	-1.2%	8%	0%	21%	-1%	16%	14%
CS(=O)(=O)N(CC(=O)NCCSCc1ccccc1)c1ccccc1	-16%	.	-5%	?	.	-24%[46.1 µM]	3%	0%
COc1ccc(C2=NOC(C(=O)NCCCN3CCOCC3)C2)cc1 (stereo not given)	-4%	3.0%	-5%	23%	-6%	-8%	6%	-4%
CC(NC(=O)[C@H](C)NC(=O)C1CC(=O)N(c2ccc3c(c2)OCO3)C1)c1ccccc1 (stereo not given in full)	-23%	.	6%	.	.	.	15%	4%
CC1CC(C)CN(c2oc(Cc3ccccc3)nc2C#N)C1 (stereo not given)	0%	-5.6%	4%	20%	-21%	?	-19%	-34%
Cc1ccc(S(=O)(=O)Nc2ccc3c(c2)n(C)c(=O)n3C)cc1	14%	.	3%	-10%[46.1 µM]	.	?	0%	-1%
COC1C(O)C(C)OC(OC2CCC3(C)C(CCC4C3C(O)CC3(C)C(C5=CC(=O)OC5)CCC43O)C2)C1O (stereo not given)	-21%	.	30%	?	.	?	.	.
O=C(Nc1ccccc1)OCc1cnc(Cl)s1	-9%	.	5%	-17%[46.1 µM]	.	-19%[46.1 µM]	-5%	-1%
C=CCn1c(SCC(=O)NCC)nc2sc3c(c2c1=O)CCC3	-10%	.	8%	14%[46.1 µM]	.	2%[46.1 µM]	-9%	-2%
Cc1ccccc1N1CCN(S(=O)(=O)c2nnc(NC(=O)c3ccccc3)s2)CC1	1%	1.3%	.	.	-3%	?	.	.
C=CCn1c(Cn2nnc3ccccc32)nnc1SCC(=O)N/N=C/c1cc(Br)cc(OC)c1O	-16%	-2.8%	13%	-5%	13%	7%	-10%	1%
Cc1ccnc(NC(=O)c2c(O)c3ccccc3n(C)c2=O)c1	.	0.0%	.	.	?	.	5%	-6%
O=c1[nH]c(SCC2CCCCO2)nc2ccccc12 (stereo not given)	25%	-2.7%	-13%	29%	-2%	-8%	?	1%
COC(=O)c1c(NC(=O)COc2ccc(Cl)cc2Cl)sc2c1CC(C)(C)NC2(C)C	-27%	.	0%	-18%[46.1 µM]	.	-20%[46.1 µM]	7%	-4%
CC(C)Oc1ccc(C(=O)Nc2ccc(-c3nc4ccccc4s3)cc2)cc1	-15%	-2.4%	.	20%[46.1 µM]	-5%	6%[46.1 µM]	.	.
O=C(O)[C@@H]1C[C@H](C(=O)O)N1	.	8.0%	.	-8%&-4%&-5%&-4%	15%	23%	12%	.
CCOC(=O)c1ccc(N=C(C)c2c(O)[nH]c(=O)[nH]c2=O)cc1	-5%	.	-8%	-20%[46.1 µM]	.	16%	-1%	-1%
CCc1ccc(NC(=O)CCS(=O)(=O)c2cc3c(cc2Cl)NC(=O)CO3)cc1	-13%	-4.1%	.	.	0%	-2%[46.1 µM]	.	.
O=C(COC(=O)c1cc([N+](=O)[O-])ccc1N1CCOCC1)c1ccc(OC(F)F)cc1OC(F)F	-28%	.	-5%	?	.	-20%	.	0%
COc1ccc(/C=C/C(=O)C23CC4CC(CC(C4)C2)C3)cc1CN1CCOCC1	?	.	7%	?	.	?	.	7%
Cc1ccc2c(c1)CCCN2C(=O)c1cc2ccccc2oc1=O	2%	1.9%	-8%	-13%	-4%	9%	-4%	-9%
Cc1cccc(OC(C)C(=O)NC2CCS(=O)(=O)C2)c1C (stereo not given)	12%	.	-7%	13%[46.1 µM]	.	10%[46.1 µM]	14%	1%
COc1ccc(Br)cc1C(=O)Nc1cccc(NC(=O)c2ccco2)c1	-24%	-1.3%	-7%	?	-9%	-27%	4%	-10%
CC(=O)c1cccc(NC(=O)CN(c2ccc(F)cc2)S(C)(=O)=O)c1	6%	1.3%	12%	-3%	0%	5%	-1%	4%

(cont.)
mol	2A StopGo	Cruzain Triton	RE007 growth inh	Marburg entry inh	Cruzain noTriton	LASV entry inh	NS1 function inh	SARS PLpro yeast
O=C(Nc1ccccc1)N(Cc1ccc2c(c1)OCO2)Cc1nc2ccccc2c(=O)[nH]1	42%[activator]	1.4%	5%	1%	-11%	3%	-28%	0%
Cc1ccc(-c2nc3s/c(=C\c4ccco4)c(=O)n3n2)cc1	.	-0.7%	2%	10%	-7%	16%	-3%	-3%
O=C(CCn1nnnc1CN1CCOCC1)N1CCC(c2cccc(Cl)c2)C1 (stereo not given)	7%	.	0%	-6%[46.1 µM]	.	-15%[46.1 µM]	7%	-2%
CCCn1c(N2CCN(CC(=O)NCc3cccs3)CC2)nc2ccccc21	0%	8.5%	-6%	5%	7%	2%	-8%	-1%
CC(C)CCn1c(O)c(N=NC(=O)Cn2ccc(C(F)(F)F)n2)c2ccccc21	-18%	-5.2%	-9%	2%	5%	8%	11%	2%
Cc1ccccc1-c1nc(CN(C)C(C)c2ccon2)c(C)o1 (stereo not given)	27%	.	3%	-1%[46.1 µM]	.	13%	-4%	0%
C[C@@H]1CC=C[C@H]2[C@H]1C(=O)N(Cc1ccccc1)[C@H]2c1ccc(F)c(-c2ccc(N(C)C)cc2)c1	?	.	18%	.	.	.	?	-3%
COc1cccc(=O)c2c(C)n(-c3cc(C)cc(C)c3)c(C)c12	?	-12%	-16%	?	-29%	-7%	2%	-15%
